GIV-Gai inh = inhibitors of GIV GBA-motif binding to rat Galpha-i3 | Galpha-i3/FITC-GIV peptide fluorescence polarization, 90 min; stronger effect = lower value; scaled: aluminum fluoride 0%, vehicle 100% | percent of control (FP), % (no concentration beside the values) | actives 0.42% (n = 210,000) | AID 1224905;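 active = replicate mean at 85% of control or lower, very high polarization wells dropped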;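 note: wells of about 15 µL received 100 nL stock; the first replicate is given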
Target sequence (P08753 whole entry, looked up): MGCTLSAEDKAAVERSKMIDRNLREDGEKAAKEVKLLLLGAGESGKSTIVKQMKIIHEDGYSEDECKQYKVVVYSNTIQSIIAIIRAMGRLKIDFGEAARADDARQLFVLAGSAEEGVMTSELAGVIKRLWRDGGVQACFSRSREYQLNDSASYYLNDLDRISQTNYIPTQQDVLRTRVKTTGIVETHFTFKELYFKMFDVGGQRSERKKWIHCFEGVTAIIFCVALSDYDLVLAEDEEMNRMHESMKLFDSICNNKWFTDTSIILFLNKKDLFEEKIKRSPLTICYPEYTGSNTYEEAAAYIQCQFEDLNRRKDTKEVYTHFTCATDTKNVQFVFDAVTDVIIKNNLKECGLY
Sa growth inh = S. aureus growth inhibition; S. aureus RN4220 growth, OD600, 20 h, 42 °C; stronger effect = lower value; actives 0.53% (n = 170,000); relative growth, % (concentration not given with the values);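 active = growth at 42 °C up to 50% and 20 or more points under that at 30 °C, or under 10% at both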;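 note: 300 nL library stock went into each well; scaled to the means of positive and negative controls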
HCMV UL50-53 inh = cytomegalovirus nuclear egress complex inhibition. HTRF UL50-UL53 interaction, normalized percent inhibition. inhibition, % (test concentration not listed). actives 0.15% (n = 190,000);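 active = both replicates at 50% or more, plus weaker picks with an unusually low signal ratio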;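 note: stock transfer was 100 nL into about 20 µL; 0% = negative control wells and 100% = wells with untagged competitor protein; inactives centre near -12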
Sa growth inh second temp = second read-out of Sa growth inh, no call of its own (marks repeat the call); relative growth, %; measured here: growth at 30 °C;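 optical density after 20 h as mean of two plates; 100% = untreated growth and lower means inhibition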
* marks the source's active call; other numbers are inactive results; / = not tested or not shown.

structure	GIV-Gai inh	Sa growth inh	Sa growth inh second temp	HCMV UL50-53 inh
c1ccc(Nc2ncnc3sccc23)cc1	/	84	91	-32
O=C(Cn1c(=O)oc2cc(S(=O)(=O)N3CCCCC3)ccc21)N1CCCCC1	102	126	87	-4
COC(=O)c1cc(COC(=O)CNC(=O)C23CC4CC(CC(C4)C2)C3)oc1C	/	91	94	-7
CC(C)c1ccc(N2C(=O)N(Cc3ccccc3Cl)c3ccccc3S2(=O)=O)cc1	101	102	94	/
CC(=O)NCCNc1nc2c(S(=O)(=O)c3ccc(C)c(C)c3)nnn2c2ccc(Cl)cc12	103	104	78	-24
O=C(Cn1ncc2c3ccccc3n(Cc3ccc(Cl)cc3)c2c1=O)NC1CCCCCC1	141	106	86	-20
CCCNC(=O)CSc1nnc(-c2ccncc2)n1CCOC	/	92	93	-21
NC(=O)c1snnc1-c1ccccc1	96	124	86	-20
Cc1nc2ccc(NC(=O)N(C(C)C)C(C)C)cc2s1	109	110	87	-14
CS(=O)(=O)c1sc(C(=O)Sc2cccs2)c2c1C=CCC2	102	39	1	-43
Cc1cccc(-c2noc(-c3ccc(N4CCCC4)c([N+](=O)[O-])c3)n2)c1	104	106	85	-23
COc1ccc(CC(=O)N2CCN(C(=O)Cc3ccc(OC)cc3)CC2)cc1	102	94	101	14
O=C(COC(=O)[C@@H]1CC(O)CN1S(=O)(=O)c1ccc2c(c1)OCCO2)c1ccccc1 (stereo not given in full)	/	86	96	-31
S=C(/N=C(\Nc1ccccc1)c1ccccc1)Nc1ccccc1	/	93	81	-17
COc1cc(OC)c(NC(=O)C2CCN(C(=O)c3sc4nc[nH]c(=O)c4c3C)CC2)cc1Cl	107	79	96	/
CNC(=S)Nc1ccc(N2CCN(c3ccc(C(F)(F)F)cn3)CC2)nc1	101	98	88	-50
O=c1[nH]ccn(Cc2ccc(F)cc2)c1=O	101	/	/	-48
COc1cc(C2=N/C(=C\c3cccc(Br)c3)C(=O)O2)cc(OC)c1OC	99	/	/	-25
CSC(=NC12CC3CC(CC(C3)C1)C2)NN	96	92	84	30
O=C(Nc1ccccc1Cl)c1ccccc1O	/	19	8	-15
CCNc1nc(NCC)nc(Oc2ccc(=O)[nH]n2)n1	113	84	77	/
CN(CC(=O)O)S(=O)(=O)c1ccc2c(c1)OCCO2	99	83	89	-20
COc1ccccc1NC(=O)CN1C(=O)C2(SCC(=O)N2c2ccc(F)c(F)c2)c2ccccc21 (stereo not given)	102	104	89	/
COCCNC(=O)CN1C(=O)c2cccnc2Oc2ccc(Cl)cc21	107	107	98	/
O=C(ON1C(=O)c2ccccc2C1=O)c1ccco1	108	78	88	/
CCN(CC)S(=O)(=O)c1ccc(Br)cc1	/	124	87	-17
CCS(=O)(=O)c1ccc(-c2ccc(NC(=O)c3ccc(F)cc3)cc2)nn1	101	/	/	-6
CCOC(=O)c1ccc(NC(c2ccccn2)c2ccc3cccnc3c2O)cc1 (stereo not given)	106	/	/	-10
c1ccc(C2=NNC(c3nc4ccccc4[nH]3)C2)cc1 (stereo not given)	106	109	80	-20
CC(C)Cc1cc(C(=O)O)nc(=O)[nH]1	109	77	88	-26
NC(N)=Nc1nc(=O)c2ccccc2s1	101	104	96	/
CCc1ccccc1NC(=O)C1CCCN1S(=O)(=O)c1cccc2nsnc12 (stereo not given)	97	95	82	-119
CN=Cc1cc(-c2ccccc2)oc1S	108	59	24	-67
CCOc1cc(/C=C2/C(=O)N(c3ccccc3)N=C2C)ccc1OS(=O)(=O)c1ccccc1[N+](=O)[O-]	106	/	/	0
Nc1c(-c2nc(-c3ccc(F)cc3)no2)nnn1-c1ccccc1Cl	109	/	/	-14
CCCn1nnnc1SCC(=O)N1CCCC1	103	113	91	0
Cc1n[nH]c(C)c1Sc1nnc(C(F)(F)F)n1C	99	104	101	7
CNC(=O)N1CCc2cc(S(=O)(=O)NC3CCCC3)ccc21	99	/	/	7
CCc1cccc(NC(=O)CN(C)S(=O)(=O)c2cccc3cccnc23)c1	99	99	87	-20
O=C(Cn1c(=O)oc2ccccc21)NCC1CCN(Cc2ccccc2F)CC1	98	102	94	-3

Looked up by structure from the entries so far (six):
structure	GIV-Gai inh	Sa growth inh	Sa growth inh second temp	HCMV UL50-53 inh
CCCn1nnnc1SCC(=O)N1CCCC1	103	113	91	0
O=C(COC(=O)[C@@H]1CC(O)CN1S(=O)(=O)c1ccc2c(c1)OCCO2)c1ccccc1 (stereo not given in full)	/	86	96	-31
O=C(Cn1c(=O)oc2cc(S(=O)(=O)N3CCCCC3)ccc21)N1CCCCC1	102	126	87	-4
CNC(=O)N1CCc2cc(S(=O)(=O)NC3CCCC3)ccc21	99	/	/	7
CN(CC(=O)O)S(=O)(=O)c1ccc2c(c1)OCCO2	99	83	89	-20
COc1cc(C2=N/C(=C\c3cccc(Br)c3)C(=O)O2)cc(OC)c1OC	99	/	/	-25

(further entries)
structure	GIV-Gai inh	Sa growth inh	Sa growth inh second temp	HCMV UL50-53 inh
O=C(O)C1Cc2ccccc2N1C(=O)c1ccccc1 (stereo not given)	106	108	86	-9
CN(C)C(=S)SCc1ccc(C(=O)Oc2c(Cl)cccc2Cl)cc1	93	91	89	-9
COc1ccc(NC(=O)Cn2c(=O)n(Cc3ccccc3)c(=O)c3oc4ccccc4c32)cc1Cl	98	98	80	/
O=C(CCC(=O)N1CCSc2ccccc21)NCc1cccs1	104	100	91	-26
O=C1/C(=C/c2ccccc2)CCc2ccccc21	108	99	70	2
OCC12CC3CC(C1)CC(CO)(C3)C2	107	110	85	/
O=C1CSC(c2cc3c(cc2[N+](=O)[O-])OCO3)N1c1ccc(Br)cc1 (stereo not given)	105	/	/	-17
CC(=O)[C@@]1(O)CCC2C3C[C@H](C)C4=CC(=O)C=CC4(C)[C@@]3(F)[C@@H](O)C[C@@]21C (stereo not given in full)	/	84	87	-48
CCOC(=O)C1=C(C)N=c2s/c(=C\c3ccc(N4CCCCC4)o3)c(=O)n2C1c1ccc(OC)cc1OC (stereo not given)	109	/	/	-18
O=C(O)CSCC(=O)NC1CCN(Cc2c(F)cccc2Cl)CC1	107	109	94	5
Cc1ccc(C(=O)NCc2ccc3c(c2)CCN3C(=O)c2ccc(C)cc2)cc1	98	130	88	/
CC(C)Sc1nc2ccccc2n2cnnc12	104	73	78	/
CCc1ccc(CNc2nc(-c3nnc(-c4cccc(C)c4)o3)nc3ccccc23)cc1	93	/	/	-16
O=C1c2ccccc2C(=O)N1c1nc2n(n1)C(c1ccccc1)C=C(c1ccc(Br)cc1)N2 (stereo not given)	100	/	/	-28
Cc1cc(C(=O)CSC#N)ccc1Cl	99	84	66	/
C=CCn1c(=O)/c(=C\c2ccccn2)s/c1=C(/C#N)C(=O)NCC1CCCO1 (stereo not given)	/	101	94	-42
CC(=O)N1c2ccc(S(=O)(=O)NC(Cc3ccccc3)C(=O)Nc3nccs3)cc2CC1C (stereo not given)	106	/	/	-12
O=C(OCCN1C(=O)c2cccc3c(N4CCOCC4)ccc(c23)C1=O)c1ccc(S(=O)(=O)N2CCOCC2)cc1	103	/	/	-14
COC(=O)c1cc(S(=O)(=O)NCCC(=O)NC(C)C)cn1C	101	/	/	-14
CC(=O)N1c2ncnn2C(c2ccc(Cl)cc2)CC1c1ccccc1 (stereo not given)	106	84	78	/
COc1ccc(C2CC(c3cc(Cl)ccc3O)=NN2)cc1OC (stereo not given)	131	57	28	/
Cc1ccc(S(=O)(=O)N(Cc2ccccc2)Cc2nc3nc(C)cc(C)n3n2)cc1	107	/	/	-4
O=C(CN1CCOc2ccccc21)N1CCC2(CC1)OCCO2	103	100	90	-25
COc1cccc(/C=C2/SC(=Nc3cc(C)cc(C)c3)NC2=O)c1O	110	/	/	-12
CC(=O)Nc1cc(C(=O)NCc2ccc(C)cc2)ccc1Sc1ccc(C)cc1	104	147	89	/
CC(C)(C)c1ccc(-c2nc(-c3cccnc3)no2)cc1	100	93	87	-4
COc1ccc(Br)cc1CN1CCN(C2CCCCCC2)CC1	95	108	92	-6
Nc1nc(N)nc(CSc2nnc(-c3ccccc3)n2-c2ccc(F)cc2)n1	/	90	93	-26
CC(Nc1nc2ccccc2s1)C(=O)NN (stereo not given)	/	70	82	-2
Cc1ccnc(-n2c(C)ccc2C)c1	94	90	81	-23
O=C(CC1(O)OC(c2ccccc2)=CC1=O)c1ccccc1 (stereo not given)	136	38	27	9
Cc1ccc2c(c1)N(CC(=O)N(Cc1cccnc1)C1CCCC1)C(=O)C(C)O2 (stereo not given)	105	103	98	16
O=C(O)c1ccc(N2C(=O)CSC2=S)cc1	/	107	100	-11
N#Cc1c(NC(=O)CSc2ccccn2)sc2c1CCCC2	/	83	81	-2
CCN(C(=O)c1cccn(Cc2cccc(Cl)c2)c1=O)c1ccccc1	102	106	89	/
O=C(Cn1nc(-c2ccccc2)nc(Cc2ccccc2)c1=O)Nc1ccc(Cl)cc1	102	109	91	/
CCNC(=O)Nc1nc2ccccc2s1	104	115	91	/
CCN(CC)S(=O)(=O)c1ccc2c(c1)CCCN2	/	105	99	-8
Cc1cc(C(=O)COc2cc3ccccc3cc2C(=O)N2CCOCC2)c(C)n1Cc1ccco1	/	72	78	-44
COc1ccc(NC(=O)C2CCN(C(=O)C3CC(=O)N(c4ccc(C)cc4)C3)CC2)cc1 (stereo not given)	102	101	82	-16
CN(C)c1cccc(C(=O)OCc2c(F)cccc2Cl)c1	/	111	99	10
COc1ccc(NC(=O)c2ccc(-c3cccc(Cl)c3C)o2)cc1	109	105	95	-41
O=c1[nH]c2c(s1)C1c3c(ccc4ccccc34)OCC1CS2 (stereo not given)	117	61	44	-56
CCCCC(=O)NC1=NC(=O)C(C)(C)S1	104	109	100	4
COc1ccc(NC(=O)CN2C(=O)CSc3ccc(S(=O)(=O)N4CCCC4)cc32)cc1OC	108	116	93	/
O=C(CCS(=O)(=O)c1ccccc1)N1CCN(c2ccccc2)CC1	104	114	93	-8
COc1ccc(-n2nc(C(=O)NCCc3cccc(C)c3)c3c4ccccc4n(C)c3c2=O)cc1Cl	106	100	95	-15
Nc1ncc(Cc2cccc(Cl)c2)s1	/	111	91	-2
Cc1ccccc1-c1ncc(-c2ccc(Br)cc2)o1	106	92	88	2
COc1ccc(CCNC(=O)c2ccc3c(c2)N(Cc2cccc(Cl)c2)C(=O)c2ccccc2S3=O)cc1OC (stereo not given)	99	115	84	/
CCNS(=O)(=O)c1cccc2c(N)cccc12	103	89	71	-48
O=S(=O)(NC1CCc2ccccc21)c1ccc(-n2cnnn2)cc1 (stereo not given)	98	88	84	-13
COC(=O)c1ccccc1NC(=O)Cn1c(SCC(=O)Nc2ccc(C)cc2)nc2ccccc21	99	/	/	-7
COc1ccc(Br)c(-c2nnc(CS(=O)(=O)c3ccccc3)o2)c1	99	82	94	1
CCC(C)NC(=O)c1sc2nc(C)c(C(=O)Nc3ccc(Cl)cc3)c(-c3ccc(Br)cc3)c2c1N (stereo not given)	103	99	98	-3
O=C(Cc1csc2nc(-c3ccccc3)cn12)N1CCc2ccccc21	114	105	102	2
C(=N\c1ncn[nH]1)/c1ccccc1	104	116	98	1
O=c1c(S(=O)(=O)c2ccc(F)c(Cl)c2)c[nH]c2cc(Cl)c(F)cc12	106	/	/	-2
CCn1c(=O)[nH]c2cc(-c3noc(C(C)NC(=O)c4ccccc4)n3)ccc21 (stereo not given)	100	/	/	-36
COc1ccccc1N1CCN(S(=O)(=O)c2c(C)sc3ncn(CC(=O)N(C)c4ccc(C(C)C)cc4)c(=O)c23)CC1	101	110	80	-26

Further entries follow:
structure	GIV-Gai inh	Sa growth inh	Sa growth inh second temp	HCMV UL50-53 inh
O=C(O)c1ccc(NCc2cccnc2)cc1	102	90	92	/
Cc1ccc(NC(=O)NCCc2nc3cccnc3n2Cc2ccccc2)cc1Cl	127	/	/	-13
CCCCn1c(=O)c2sccc2n2c(CCC(=O)NC3CCC(C)CC3)nnc12 (stereo not given)	101	/	/	5
O=C(OC1CS(=O)(=O)CC1OC(=O)c1ccccc1)c1ccccc1 (stereo not given)	/	106	95	-3
CCOC(=O)c1ccc2nc(CCC(=O)NC3CCC(C)CC3)c(=O)n(CC)c2c1 (stereo not given)	/	94	74	-33
Cn1c(=O)c2c(nc(SCC(=O)Nc3ccc(F)cc3)n2Cc2ccccc2F)n(C)c1=O	107	88	105	13
CCn1c(CN2CCCCCC2=O)n[nH]c1=S	/	90	96	-14
CCc1ccc(-c2nn(CC(=O)Nc3ccccc3)c3c2cnc2ccc(F)cc23)cc1	101	95	89	/
CCc1cccc(C)c1NC(=O)Cn1nc(C)c2nn(-c3ccc(Cl)cc3)c(C)c2c1=O	105	106	92	/
CC1(CC(=O)N=Nc2c(O)[nH]c3ccccc23)OCCO1	106	94	85	-110
